# Efa HMGR inh: blocks class II HMG-CoA reductase of Enterococcus faecalis; purified E. faecalis HMGR, NADPH absorbance 340 nm kinetic; inhibition, % at 10 µM; 190,000 compounds, 0.41% hits; AID 1066;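 active means inhibition above a set limit, the median over all tested compounds plus 3 SD, cut at about 9.5% in these data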;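 further: enzyme runs in reverse so mevalonate oxidation gives rising NADPH absorbance; 0% = complete reaction with DMSO and 100% = background rate lacking mevalonate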
# Hsp70 act: transcriptional activators of Hsp70 | HeLa Hsp70 promoter luciferase reporter, luminescence; scaled: vehicle 0, proteasome-inhibitor control 100% | activation, % at 10 µM | 200,000 compounds, 0.04% hits;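 active means activation above the mean across all tested compounds plus 3 SD, cutoff set per campaign, cut at about 5.5% in these data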;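 further: 100% = MG132 at 30 µM as the positive control and 0% = DMSO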
# STAT1 blocker: STAT1 signaling inhibition; NIH 3T3 STAT1-luciferase reporter, IFN-gamma, luminescence; inhibition, % at 5.5 µM; 200,000 compounds, 0.35% hits; AID 920;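 active means inhibition above a set limit, the mean inhibition across all tested compounds plus 3 SD, cut at about 34% in these data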;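 further: 0% = IFN-gamma with DMSO and 100% = IFN-gamma with 300 µM nifuroxazide; values of inactives mirror those of a sister screen read the other way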
# TLR4-MyD88 BLA: blocks binding of human TLR4 to MyD88. HeLa CL3-4 TLR4/MyD88 BLA complementation, FRET ratio. AID 861. O00206+Q99836. 200,000 compounds, 0.18% hits. inhibition, % at 8.4 µM; in the data active means inhibition above about 25%;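 further: 0% = vehicle and 100% = reference inhibitor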
# DTT redox prof: compounds producing H2O2 with reducing agent – biochemical, NIH compound library profiling, artefact control for MLSCN library redox annotation, primary screen | DTT-dependent redox cycling H2O2, phenol red/HRP absorbance; 100% = 100 µM peroxide control, 0% = buffer | activation, % at 10 µM | 200,000 compounds, 0.03% hits;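 active means activation of at least 50% relative to the plate's high and low controls in the primary single-dose screen; inactive means activation below 50%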;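 further: compound incubated with DTT at 0.8 mM final as the reducing agent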
# STAT1 activator: activators of IFN-gamma induced STAT1 signaling; NIH 3T3 STAT1-luciferase reporter, luminescence; 100% = IFN-gamma alone, no compound; 200,000 compounds, 2.6% hits; activation (% of control), % at 5.5 µM;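 active means activation above the screen-wide mean activation plus 3 SD, cut at about 130% in these data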;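 further: raw ratio to IFN-gamma control signal so 100% means no change and 0% no light; values of inactives mirror those of a sister screen read the other way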
# STAT3 blocker: STAT3 signaling inhibition; inhibition, % at 5.5 µM; AID 862; 190,000 compounds, 0.89% hits; U3A cells, IL-6 STAT3-luciferase reporter, luminescence; host cell line lacks STAT1;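 active means inhibition above the mean inhibition across all screened compounds plus 3 SD, cut at about 44% in these data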;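 further: 0% = DMSO only wells and 100% = 100 µM nifuroxazide control wells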
# APP 5'UTR act: activates APP 5'UTR luciferase reporter; SH-SY5Y APP 5'UTR luciferase reporter, luminescence; zero percent = DMSO vehicle wells; activation, % at 2 µM; 190,000 compounds, 1% hits;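 active means activation above a set limit, based on mean plus 3 SD of controls, cut at about 140% in these data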; further: values of inactives mirror those of a sister screen read the other way
# STAT3 act: STAT3 signaling activation | U3A cells, IL-6 STAT3-luciferase reporter, luminescence; 100% = signal with IL-6 EC80 alone | activation (% of control), % at 5.6 µM | 190,000 compounds, 0.91% hits | AID 871;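 active means activation above the screen-wide mean of compound activation plus 3 SD, cut at about 130% in these data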;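 further: 0% = background luminescence of wells with medium and substrate only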
#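 Test system: STAT3-luciferase reporter U3A cells; Detection: reporter luminescence signal; Times: 1 h compound pre-exposure, 6 h IL-6 stimulation, 37 °C; Benchmarks: IL-6-only high control; Also added: IL-6 stimulus at 33 ng/mL final.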
# The depositor's hits bear a star; & = joins results of further samples. A portion of the library. The share of hits here may be higher or lower than overall.
SMILES,Efa HMGR inh,Hsp70 act,STAT1 blocker,TLR4-MyD88 BLA,DTT redox prof,STAT1 activator,STAT3 blocker,APP 5'UTR act,STAT3 act
CC1(C)O[C@@H]2C[C@H]3[C@@H]4CCC5=CC(=O)C=C[C@]5(C)[C@@]4(F)[C@@H](O)C[C@]3(C)[C@]2(C(=O)CO)O1,0,-0.3,-25,24,-0.1,122,3,106,100
CC(=O)N(O)CCCCCNC(=O)CCC(=O)N(O)CCCCCNC(=O)CCC(=O)N(O)CCCCCN,-4,-0.3,5,8,-0.2,96,12,-13,92
COc1ccc2c(c1)c(CC(=O)O)c(C)n2C(=O)c1ccc(Cl)cc1,1,-0.4,-11,-5,0.6,110,0,-2,103
c1cnc2c(c1)ccc1cccnc12,0&-7,-0.4&-0.5,3&-1,5&0,0.5&0.3,96&101,30&16,-32&-30,81&88
NNc1nc(-c2ccccc2)cs1,-5,0.2,-27,-10,-0.4,126,-31,29,126
COc1cc(C(=S)N2CCOCC2)ccc1O,1,-0.2,2,4,-1.0,96,4,7,100
CNC[C@H](O)c1ccc(O)c(O)c1,-2,-0.1,0,-5,8.4,100,0,16,102
COc1cnc(NS(=O)(=O)c2ccc(N)cc2)nc1,1,-0.3,-4,-13,0.1,104,1,-26,101
CC1=CC(C)(C)Nc2ccccc21,-7,0.0,-4,-8,-0.2,104,8,5,96
CC1(C)[C@@H](O)CC[C@]2(C)[C@H]3C(=O)C=C4[C@@H]5C[C@@](C)(C(=O)O)CC[C@]5(C)CC[C@@]4(C)[C@]3(C)CC[C@@H]12,-4,-0.4,-3,3,-0.1,103,14,8,90
CC1CCc2cc(F)cc3c(=O)c(C(=O)O)cn1c23 (stereo not drawn),-14,-0.3,-1,-2,-0.3,101,8,-6,95
Cc1ccc([N+](=O)[O-])cc1N,-1,0.0,-3,-25,-0.4,101,-8,20,115
O=[N+]([O-])c1ccc(O)c2ncccc12,-6,-0.3,-3,-7,-0.1,103,8,7,95
Oc1c(I)cc(Cl)c2cccnc12,-3,-0.2,-8,-14,0.0,107,-6,-9,107
CC(=O)O[C@]1(C(C)=O)CC[C@H]2[C@@H]3C=C(Cl)C4=CC(=O)CC[C@]4(C)[C@H]3CC[C@@]21C,-3,0.1,6,5,-0.8,94,20,2,84
CCn1cc(C(=O)O)c(=O)c2cc3c(cc21)OCO3,-9,0.0,4,-4,-0.6,96,-3,-14,105
NS(=O)(=O)c1cc2c(cc1C(F)(F)F)NCNS2(=O)=O,-3,-0.5,2,1,0.8,98,10,4,94
O=C(Nc1ccccc1)c1ccccc1O,-1,-0.1,5,4,1.8,96,21,18,89
COC(=O)Cc1c[nH]c2ccc(OCC(O)CNC(C)C)cc12 (stereo not drawn),3,-0.2,5,1,-2.1,96,1,-2,105
O=c1[nH]c2ccccc2n1CCCN1CCN(C(c2ccccc2)c2ccccc2)CC1,0,0.1,-7,-7,0.0,107,6,6,97
O=C(O)CC(O)C(=O)O (stereo not drawn),-6,-0.5,8,-1,-9.2,92,6,3,97
NCCNCCNCCN,1,-0.2,-1,-13,0.4,101,0,-9,102
O=[N+]([O-])c1ccc2[nH]ncc2c1,4,-0.2,0,-8,-0.1,99,12,0,92
Cc1cc(C)nc(NS(=O)(=O)c2ccc(N)cc2)n1,-5,-0.2,-4,4,-0.5,103,9,10&-1,94
CC(O)CN=c1cc(-c2ccccc2)oc2ccc(Cl)cc12 (stereo not drawn),2,0.0,-37,-5,2.6,134*,10,64,95
NC12CC3CC(CC(C3)C1)C2,-2,-0.3,1,-6,0.2,99,1,4,101
O=C(O)CCSCCC(=O)O,-2,0.1,2,12,-1.7,100,0,6,104
CN(C)CC/C=C1\c2ccccc2COc2ccccc21,0,-0.3,5,8,0.6,95,4,4,99
CC1=NC(C)(C)Cc2ccccc21,2,0.1,-6,10,-0.5,105,-3,7,103
C[C@]12CC[C@@H]3c4ccc(O)cc4CC[C@H]3[C@@H]1CC[C@@H]2O,-7,-0.3,-6,11,-0.3,105,0,3,102

# In the list so far, twelve contain nitrogen in an aromatic ring.
SMILES,Efa HMGR inh,Hsp70 act,STAT1 blocker,TLR4-MyD88 BLA,DTT redox prof,STAT1 activator,STAT3 blocker,APP 5'UTR act,STAT3 act
COc1ccc2c(c1)c(CC(=O)O)c(C)n2C(=O)c1ccc(Cl)cc1,1,-0.4,-11,-5,0.6,110,0,-2,103
c1cnc2c(c1)ccc1cccnc12,0&-7,-0.4&-0.5,3&-1,5&0,0.5&0.3,96&101,30&16,-32&-30,81&88
NNc1nc(-c2ccccc2)cs1,-5,0.2,-27,-10,-0.4,126,-31,29,126
COc1cnc(NS(=O)(=O)c2ccc(N)cc2)nc1,1,-0.3,-4,-13,0.1,104,1,-26,101
CC1CCc2cc(F)cc3c(=O)c(C(=O)O)cn1c23 (stereo not drawn),-14,-0.3,-1,-2,-0.3,101,8,-6,95
O=[N+]([O-])c1ccc(O)c2ncccc12,-6,-0.3,-3,-7,-0.1,103,8,7,95
Oc1c(I)cc(Cl)c2cccnc12,-3,-0.2,-8,-14,0.0,107,-6,-9,107
CCn1cc(C(=O)O)c(=O)c2cc3c(cc21)OCO3,-9,0.0,4,-4,-0.6,96,-3,-14,105
COC(=O)Cc1c[nH]c2ccc(OCC(O)CNC(C)C)cc12 (stereo not drawn),3,-0.2,5,1,-2.1,96,1,-2,105
O=c1[nH]c2ccccc2n1CCCN1CCN(C(c2ccccc2)c2ccccc2)CC1,0,0.1,-7,-7,0.0,107,6,6,97
O=[N+]([O-])c1ccc2[nH]ncc2c1,4,-0.2,0,-8,-0.1,99,12,0,92
Cc1cc(C)nc(NS(=O)(=O)c2ccc(N)cc2)n1,-5,-0.2,-4,4,-0.5,103,9,10&-1,94
